Vaccinia mCherry = inhibitors of vaccinia virus infection (mCherry reporter signal); Vaccinia virus mCherry reporter infection, fluorescence; about a quarter of the inactives have no number; Potency, µM (titrated, usually from 36.5 µM), without a hit: at the top dose activity change, negative = inhibition, hits mostly inhibitors; actives 0.63% (n = 310,000); AID 720579; active = well fitted inhibition curve with a large enough effect; inconclusive = small, poorly fitted or top-dose-only effect; inactive = no such curve, though single readings can be large or run the other way; tested in A549 cells; also: nearly all actives have a fitted effect of over 35% in size; inactives centre near -10
VACV Venus inh = vaccinia inhibition (Venus reporter) | actives 0.46% (n = 330,000) | Vaccinia virus Venus reporter expression, fluorescence | Potency, µM (doses to about 36.5 µM), for the others: top-dose activity change, negative = inhibition, most hits filed as inhibitors; active means well fitted inhibition curve with a large enough effect; inconclusive means small, poorly fitted or top-dose-only effect; inactive means no such curve, though single readings can be large or run the other way; tested in A549 cells; also: nearly all actives have a fitted effect of over 30% in size; inactives centre near -10
* = called active by the depositor; i = inactive; u = inconclusive; x = no result given; & = joins results of further samples; [ ] = dose if it differs, or a comment. % is scaled to controls: 0 for no effect and ±100 for the full control effect; potency is read from the fitted curve at half-maximal effect.

SMILES	Vaccinia mCherry	VACV Venus inh
O=C(COc1ccccc1Cl)Nc1ccccc1OCc1cc(=O)n2ccccc2n1	i	-9.3%
COc1cc(-c2cccnc2)cc2c1OCCN(C(=O)Cc1csc(C)n1)C2	i	-13.2%
CCCC(C)NC(=O)Cc1ccc(Br)cc1 (centres undefined)	-20.6%	-10.6%
COc1cc(-c2noc(CCC(=O)NC3CCCC3)n2)cc(OC)c1OC	-10.8%	-5.5%
CC(C)N1C(=O)C2C(c3ccccc3O)NC(C)(C(=O)O)C2C1=O (centres undefined)	1.3%	1.0%
COc1cccc(OC)c1C(=O)Nc1ccccc1C(=O)N1CCCCCC1	i	-1.4%
C[C@H]1CN([C@@H](C)CO)C(=O)CCCn2nncc2CO[C@@H]1CN(C)Cc1ccccc1C(F)(F)F	-4.5%	-10.8%
CCOC(=O)c1cc(=O)n2nc(-c3ccc(C)cc3)nc2s1	9.4%	9.7%
CNC(=S)Nc1ccc2[nH]c(=O)[nH]c2c1	-7.7%	-8.5%
CCOC(=O)c1cnc2ccc(OCC)cc2c1N(C)Cc1ccccc1	-13.3%	-17.0%
COc1ccc(C(CNC(=O)c2oc3ccccc3c2C)N2CCCCC2)cc1 (centres undefined)	-11.4%	-0.5%
C=Cc1cc(OC)c2c(c1)c(=O)oc1c2cc(OC)c2c(O)ccc(C3OC(C)C(O)C(C)(O)C3O)c21 (centres undefined)	u	1µM*
CCOC(=O)CSc1nnc([C@H](C)NC(=O)OC(C)(C)C)o1	x	-7.8%
COc1ccccc1N(CC(=O)Nc1cccnc1)S(=O)(=O)c1ccccc1	i	-12.4%
O/N=C1/CCc2nonc2/C1=N/O	x	-21.6%
CC(=O)Nc1ccc(-c2ccnc3c2CC(C(=O)NCc2ccc(N4CCN(C)CC4)cc2)O3)cc1 (centres undefined)	19.4%	0.4%
Cc1cccc(C(=O)NC2=NCCS2)c1	-17.2%	-13.0%
O=C(Nc1c(-c2ccc(F)cc2)nc2ccccn12)c1cccc(F)c1	-13.9%	1.9%
CCCN=C1N(C)C[C@@H]2[C@@H]3C(=O)N(Cc4ccccc4)C(=O)[C@@H]3[C@](Cc3ccccc3)(C(=O)OC)N12	-18.1%	-9.8%
Cc1ccccc1C(=O)c1c[nH]c(C(=O)NCC2CCCO2)c1 (centres undefined)	x	-27.0%
O=C(C1=COCCO1)N1CCN(C(c2ccccc2)c2ccccc2)CC1	-16.1%	-11.8%
CCCCNC(=O)C1C(c2ccc(OC)cc2)=Nc2ccccc2N1C(=O)c1ccc2ncccc2c1 (centres undefined)	i	-2.4%
Cc1cc2ccccc2n2c(SCC(=O)N3CCc4ccccc4C3)nnc12	i	-8.5%
O=S1(=O)CC(N2CCC(c3ccccc3)CC2)CN1C1CCCCC1 (centres undefined)	12.6%	-6.9%
C[C@H]1CN([C@@H](C)CO)S(=O)(=O)c2ccc(Br)cc2O[C@H]1CN(C)C(=O)c1cccnc1	-1.2%	-12.9%
COC1=CC(=O)c2nc(Cl)ccc2C1=O	u	u
CCOCCCNS(=O)(=O)c1cc2[nH]c3c(c2cc1C)C(=O)CC(C)(C)C3	i	-18.3%
Cc1ccc(S(=O)(=O)CCc2nnc(NC(=O)c3cnccn3)s2)cc1	x	-5.1%
COc1ccccc1C(=O)OCC(=O)Nc1cc(S(=O)(=O)N2CCOCC2)ccc1N1CCCC1	-5.1%	-12.8%
COc1ccc(OC)c(C2CC(=O)N3CN(c4cccc(Cl)c4C)CSC3=C2C#N)c1 (centres undefined)	51.0%[activator]	5.8%
Cc1ccc(CNC(=O)Nc2ccc(F)cc2F)n1C	-3.7%	-16.6%
Cc1onc(-c2ccccc2)c1C(=O)Nc1ccncc1	-18.2%	-8.9%
O=C1C(c2ccncc2)=C(O)c2ccccc21	x	-20.5%
Nc1ncnc2c1ncn2[C@H]1CC[C@@H](CO)O1	-5.3%&-14.6%	3.7%&-5.1%
Cc1cc2c(c(/C=C/C(=O)c3ccccc3)c1)OC1(C=C2)Oc2ccccc2C(=O)N1C (centres undefined)	-12.8%	-4.9%
Cc1ccc(C)c(NC(=O)c2cnn3ccccc23)c1	-14.5%	-7.6%
CC1(C)c2ccccc2-n2c1cc1oc(=O)cc(O)c1c2=O	-1.0%	-13.5%
CCOC(=O)C(=O)Nc1ccc2c(c1)OCO2	i	-11.8%
O=C(C1CCN(S(=O)(=O)Cc2ccccc2)CC1)N1CCCc2ccccc21	i	-0.1%
COc1ccccc1-c1ccnc(-n2ncc(C(=O)N3CCN(C(C)C)CC3)c2-c2ccco2)n1	-9.9%	12.2%
O=C(CSc1ncccn1)Nc1cc(Cl)ccc1[N+](=O)[O-]	-5.5%	10.0%
CC(C(=O)Nc1cccc([N+](=O)[O-])c1)N(c1ccccc1)S(C)(=O)=O (centres undefined)	-7.5%	-21.6%
CCOC(=O)c1ccc(NC(=O)/C=C/c2cccs2)cc1	-9.7%	-1.1%
CC(C)c1cc(Cn2c3ccccc3c(=O)n2C(C)Cn2cc(CCCC#N)nn2)on1 (centres undefined)	-9.1%	-0.1%
O=C(NCc1ccccc1)C1C(c2ccc3c(c2)OCO3)=Nc2ccccc2N1C(=O)c1cccc2ccccc12 (centres undefined)	-22.6%	-19.2%
Cc1ccc(C(=O)N(Cc2sccc2C)C2CCS(=O)(=O)C2)cc1 (centres undefined)	-18.8%&-7.3%	-15.2%&-7.8%
COc1ccc(C(CNC(=O)Cc2ccc3ccccc3c2)N(C)C)cc1 (centres undefined)	-27.0%	-13.9%
Cc1onc(-c2c(F)cccc2Cl)c1C(=O)N=C(N)N1CCCC1	-3.6%[7.34 µM]	-19.9%[7.34 µM]
COc1ccccc1-n1ncc2c(=O)[nH]c(SCC(=O)Nc3ccc(Cl)cc3)nc21	-10.1%	-10.0%
O=C(CS(=O)CC(=O)Nc1cccnc1)Nc1ccc(F)cc1 (centres undefined)	-0.3%	0.8%
Cc1nnc(NC(=O)CN2CCN(Cc3c(Cl)cccc3Cl)CC2)s1	i	-10.1%
Cc1ccc2nc(CCc3nc4ccc(C)cc4[nH]3)[nH]c2c1	-29.2%	-15.7%
O=S(=O)(c1ccc(Oc2ccc(F)c(Cl)c2)nc1)N1CCOCC1	i	-6.8%
COc1cc2c(cc1OC)C1CC(=O)C(CC(C)C)CN1CC2 (centres undefined)	i	-5.9%
CCOC(=O)c1cc(OCC)c2c(ccc3cc(OC)ccc32)n1	-3.1%	-21.7%
CCCN1CNc2c(c(=O)[nH]c(=S)n2CCc2ccc(Cl)cc2Cl)C1	-2.6%	-26.3%
CCOC(=O)CSc1nc2c(sc3ccccc32)c(=O)n1CCO	-0.3%	-3.2%
CC1CCC(NC(=O)CCCCn2c(=O)[nH]c3ccsc3c2=O)CC1 (centres undefined)	i	-17.6%
COC(=O)c1c(C(=O)OC)c(-c2cccc(Cl)c2)n2c1CS(=O)C2 (centres undefined)	6.2%	-5.2%
O=C(O)c1ccc(NC(=O)c2cn(-c3ccccc3)nc2-c2ccc(Cl)cc2)cc1	-16.7%	-21.5%
The listing continues:
SMILES	Vaccinia mCherry	VACV Venus inh
Cc1[nH]c(=O)[nH]c(=O)c1S(=O)(=O)N1CCCC(C(=O)NCc2ccccc2Cl)C1 (centres undefined)	i	-10.0%
COc1ccc(CNC(=O)c2c(O)c3cccc4c3n(c2=O)CCC4)cc1	i	-9.9%
Cc1c(NC(=O)C(C)N2C(=O)C3C4C=CC(C4)C3C2=O)c(=O)n(-c2ccccc2)n1C (centres undefined)	i	-0.7%
CN(C(=O)COC(=O)c1ccccc1SCC(=O)N1CCCC1)C1CCS(=O)(=O)C1 (centres undefined)	i	-3.2%
COc1cccc(/C=C2\N=C(c3c(-c4ccccc4)noc3C)OC2=O)c1OC	-10.9%	-5.8%
O=C1Nc2ccccc2Nc2ncccc21	x	-14.2%
CC(C)C[C@H](NC(=O)CC[C@H]1O[C@@H](n2ccc(=O)[nH]c2=O)[C@H](O)[C@@H]1O)C(=O)O	i	-2.9%
O=C(Cn1cnc2c(OCc3ccccc3)ncnc21)NCc1ccccn1	i	0.0%
CN(C=C1C(=O)CC(C)(C)CC1=O)CCN1CCNCC1	i	-16.3%
CN(C)c1ccccc1-c1cc(NC=O)c2ncc(-c3cccc(C(F)(F)F)c3)n2c1	-10.1%	-12.3%
O=C(O)c1ccc(Cl)c(S(=O)(=O)Nc2ccc(OCc3ccccc3)cc2)c1	-26.0%	-13.5%
N#CC1(Nc2cccc(Cl)c2)CCCC1	-22.4%	5.3%
CC(C)c1ccc(Nc2c(-c3ccco3)nc3ccccn23)cc1	-14.1%	u
Cc1c([N+](=O)[O-])c(C/C=N/O)nn1C	i	-3.3%
CN(CC(=O)Nc1ccc(F)cc1)C(=O)CSc1nccn1C	-17.8%	-9.1%
CCOC(=O)C1CCN(c2nc3cc(OC)ccc3cc2C#N)CC1	-10.7%	4.1%
COC(=O)CC1C(=O)NCCN1C(=S)Nc1cc(C)cc(C)c1 (centres undefined)	i	-7.2%
CC(C)(C)c1ccc(C(=O)NCCC(=O)NCc2ccc(F)cc2)cc1	i	-13.1%
CCc1nnc(NC(=O)[C@@H]2CCCN2C(=O)c2cccs2)s1	-7.9%	-10.5%
Cn1c(N)c(C(=O)COc2ccc(Cl)cc2Cl)c(=O)n(C)c1=O	i	-23.4%
COc1cccc(/C=N/NC(=O)c2ccoc2C)c1	i	-10.3%
c1cc2c(cc1[C@H]1OC[C@H]3[C@@H]1CO[C@H]3c1ccc3c(c1)OCO3)OCO2	-3.8%	-14.4%
COc1ccc(-n2nc(C(N)=O)c(O)cc2=O)cc1	-15.1%	2.1%
Cc1cccc(OC2(c3ccccc3)OC(=O)c3ccccc32)c1C (centres undefined)	-19.9%	-11.9%
COc1cccc(Cn2c(C(C)n3c(-c4cnccn4)nc4ccccc43)nc3ccccc32)c1 (centres undefined)	-15.1%	-26.3%
COc1ccc(N(C(=O)c2cccnc2)S(=O)(=O)c2cc(OC)ccc2OC)cc1	-5.0%	-13.0%
Cc1onc(-c2c(F)cccc2Cl)c1C(=O)N1CCCC1	-20.8%	-14.5%
COc1ccc(-c2nc(-c3ccccc3)c(-c3ccc(O)cc3)[nH]2)cc1	u	-21.6%
O=C1c2c([N+](=O)[O-])cc([N+](=O)[O-])cc2S(=O)N1Cc1ccccc1 (centres undefined)	i	-8.7%
CCCCn1nnc(NC(=O)c2ccc(-c3ccccc3)cc2)n1	x	-1.4%

Continued; the last seven above are carried over.
SMILES	Vaccinia mCherry	VACV Venus inh
Cc1cccc(OC2(c3ccccc3)OC(=O)c3ccccc32)c1C (centres undefined)	-19.9%	-11.9%
COc1cccc(Cn2c(C(C)n3c(-c4cnccn4)nc4ccccc43)nc3ccccc32)c1 (centres undefined)	-15.1%	-26.3%
COc1ccc(N(C(=O)c2cccnc2)S(=O)(=O)c2cc(OC)ccc2OC)cc1	-5.0%	-13.0%
Cc1onc(-c2c(F)cccc2Cl)c1C(=O)N1CCCC1	-20.8%	-14.5%
COc1ccc(-c2nc(-c3ccccc3)c(-c3ccc(O)cc3)[nH]2)cc1	u	-21.6%
O=C1c2c([N+](=O)[O-])cc([N+](=O)[O-])cc2S(=O)N1Cc1ccccc1 (centres undefined)	i	-8.7%
CCCCn1nnc(NC(=O)c2ccc(-c3ccccc3)cc2)n1	x	-1.4%
O=C(NC1CCCCCC1)c1ccc(=O)n(Cc2ccccc2)n1	-13.4%	-19.3%
COc1ccccc1CNC(=O)C1CCCCN1S(=O)(=O)c1ccccc1 (centres undefined)	8.1%	-14.5%
CCCCc1nnc(NC(=O)CSc2nc(O)c(-c3ccccc3)c(=O)[nH]2)s1	-10.2%	-4.4%
Cc1ccc(C(=O)C=CC=Cc2ccccc2)cc1	-9.1%	-5.3%
CN(C)CCCOC(=O)c1cc2ccccc2o1	x	u
CCOCCCN(C(=O)c1snc(C(N)=O)c1N)C(C(=O)NC1CCCC1)c1ccc(F)cc1 (centres undefined)	-15.8%	-15.6%
CCOC(=O)c1sc(=S)n(-c2ccccc2)c1C	i	-4.5%
Cc1ccc(S(=O)(=O)N2C[C@@H](C)[C@]3(C2)[C@H](O)[C@H](OC(=O)NCc2ccccc2F)C[C@H]2C(=O)N(c4ccccc4)C(=O)[C@H]23)cc1	-0.7%	-29.3%
Cc1csc(-c2nc3ccccc3n2C(C(=O)NC(C)(C)C)c2cc3ccccc3o2)c1 (centres undefined)	-17.2%	-9.6%
CCOC(=O)C1CCN(C(=O)c2ccccc2Oc2ccccc2)CC1	-13.7%	-3.4%
Cc1oc2cc(OCc3cnn(-c4ccccc4)c3)ccc2c(=O)c1Oc1ccccc1F	-24.8%	-18.2%
Cc1cc(CN(C)C(=O)CCc2nnc(Cc3cccc(C(F)(F)F)c3)o2)on1	i	-6.1%
C[C@@H]1CN([C@@H](C)CO)C(=O)c2cc(Br)cnc2O[C@H]1CN(C)C(=O)Nc1ccccc1	0.4%	-3.6%
S=c1[nH]nc(-c2ccncc2)n1/N=C/c1ccccc1	-8.4%	-7.4%
Cc1ccc(NC(=O)c2ccc3nccnc3c2)c(C)c1	i	-6.9%
COC(=O)C[C@@H]1C[C@H]2c3cc(NC(=O)CC4CC4)ccc3O[C@H]2[C@@H](CO)O1	-0.3%	-11.8%
O=C(Nc1cc(S(=O)(=O)N2CCCCC2)ccc1Cl)C1COc2ccccc2O1 (centres undefined)	i	-13.0%
COc1ccc(C2=Nc3ccccc3N(C(=O)c3ccc(C(F)(F)F)cc3)C2C(=O)Nc2c(C)cccc2C)cc1 (centres undefined)	-4.3%	-22.4%
Cc1cccc(C)c1NC(=S)N(Cc1cccs1)C1CCCC1	-14.1%	-5.9%
CCOc1ccc(S(=O)(=O)NCC(c2ccco2)S(=O)(=O)c2ccc(F)cc2)cc1 (centres undefined)	-24.8%	-20.7%

Compound activity (PubChem)
